VDR inh: inhibitors of human vitamin D receptor; P11473; VDR-SRC2-3 peptide fluorescence polarization, 2 h; Potency, µM, for the others: max response, negative = inhibition, hits mostly inhibitors; hit rate 0.93% among 400,000; active = well fitted inhibition curve with a large enough effect; inconclusive = small, poorly fitted or top-dose-only effect, or another doubt; inactive = no such curve, though single readings can be large or run the other way; also: series mostly up to about 120 µM
Target sequence (P11473 whole entry, looked up): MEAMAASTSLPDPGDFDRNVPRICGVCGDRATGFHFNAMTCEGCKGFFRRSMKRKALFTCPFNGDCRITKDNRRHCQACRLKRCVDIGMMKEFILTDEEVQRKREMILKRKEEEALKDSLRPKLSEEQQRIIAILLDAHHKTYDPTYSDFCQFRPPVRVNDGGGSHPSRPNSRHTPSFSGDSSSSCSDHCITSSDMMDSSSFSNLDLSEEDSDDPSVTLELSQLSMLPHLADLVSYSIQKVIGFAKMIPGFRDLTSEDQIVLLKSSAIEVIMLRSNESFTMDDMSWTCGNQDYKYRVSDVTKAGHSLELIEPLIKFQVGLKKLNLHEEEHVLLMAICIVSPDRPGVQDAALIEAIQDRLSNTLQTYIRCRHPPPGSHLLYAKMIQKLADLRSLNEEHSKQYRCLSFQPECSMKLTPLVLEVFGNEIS
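Inhibition of the VDR/SRC2-3 peptide interaction is quantified by fluorescence polarization. Compounds (23 nl, pintool) incubate with the reagents for 2 hours at ambient room temperature.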
Numbers without * were called inactive; ? = inconclusive; & = joins results of further samples. % is scaled to controls: 0 for no effect and ±100 for the full control effect; potency is read from the fitted curve at half-maximal effect. An excerpt; the hit share may differ from the screen's.

SMILES	VDR inh
O=C(CCN1C(=O)[C@H]2CC=CC[C@H]2C1=O)NCc1nc(-c2ccccc2)no1	-22%
CC(=O)c1cccc(NC(=O)CSc2nc(=O)n(Cc3ccco3)c3c2CCC3)c1	2%
Cc1nnc(C)n1/N=C/c1ccc(C(=O)O)cc1	5%
COc1cc(C(=O)CSc2nnc(-c3ccc(O)cc3)n2CC2CCCO2)ccc1NC(C)=O (configuration not stated)	17%
O=C(Nc1cccc(-c2cc3ccccc3oc2=O)c1)c1ccc(Br)o1	8%
CC(OC(=O)c1nccnc1N)C(=O)Nc1ccc(S(=O)(=O)N2CCCC2)cc1 (configuration not stated)	4%
N#Cc1ccc(OCC(=O)N2CCN(S(=O)(=O)c3cccc(Cl)c3)CC2)cc1	2%
COc1ccccc1-c1nc(SCC(=O)Nc2ccc(C)c(C)c2)n[nH]1	-20%
Cc1ccc2nc(-c3ccc(NC(=O)Cc4cccs4)cc3)[nH]c2c1	20%
COc1ccc(NC(=O)c2ccc3c(=O)n4nc(Nc5cccc(Cl)c5C)sc4nc3c2)cc1	-2%
CN(C)N1C(N)=C(C#N)C(c2cccnc2)C2=C1CCCC2=O (configuration not stated)	-8%
CCn1nnc2c(=O)oc3ccccc3c21	4%
CC1C=CC(C)C(C(=O)O)C1C(=O)O (configuration not stated)	5%
CCOCCc1nn2c(=O)cc(COC(=O)C3CCCCC3)nc2s1	-6%
COc1cc(C(=O)O[C@H]2C/C(C)=C/CC[C@]3(C)O[C@@H]3C(O)C2C(C)C)cc(OC)c1OC (some centres not stated)	-15%
Cc1ccc(C)c(OCC(=O)Nc2ccccc2C(=O)N2CCOCC2)c1	17%
OCC[C@@H]1C[C@H](O)[C@@H](O)[C@@]2(CCCO2)O1	-7%
CCCC1CCc2c(sc(N)c2C(N)=O)C1 (configuration not stated)	?
c1ccc(CC2CCN(C(c3cccs3)c3nnnn3C3CCCC3)CC2)cc1 (configuration not stated)	-5%
Cc1ccc(C2=Nc3ccccc3N(CC(=O)NCc3ccc(F)cc3)C(=O)C2)cc1C	-2%
Cc1ccc(Nc2c3c(nc4nncn24)CCC3)cc1	-1%
CCCCCCN1C2=NCCN2c2ccccc21	-16%
CN1N=C(C(=O)N2CCc3c([nH]c4ccccc34)C2c2ccccc2Cl)CCC1=O (configuration not stated)	-4%
Cc1n[nH]c(C)c1Cc1c(F)cccc1Cl	0%
CCC1Oc2ccc(C)cc2N(CC(=O)NCc2ccc(OC)cc2)C1=O (configuration not stated)	0%
CC(C)=CCN1CCN(CCCc2ccccc2)CC1CCO (configuration not stated)	8%
CC(C)C(C(=O)NCC1CCCO1)N(C(=O)CNS(=O)(=O)c1ccc(F)cc1)C1CCCCC1 (configuration not stated)	0%
CCOC(=O)c1ccc2c(c1)N(CC(=O)N(C)c1ccccc1)C(=O)c1ccccc1S2	0%
Cc1ccccc1NC(=S)N(CCN1CCCCC1)Cc1ccco1	21%
C=CCNC(=O)COC(=O)COc1ccc(Cl)cc1	13%

Next section, overlapping the part above by 6 compounds.
SMILES	VDR inh
CCC1Oc2ccc(C)cc2N(CC(=O)NCc2ccc(OC)cc2)C1=O (configuration not stated)	0%
CC(C)=CCN1CCN(CCCc2ccccc2)CC1CCO (configuration not stated)	8%
CC(C)C(C(=O)NCC1CCCO1)N(C(=O)CNS(=O)(=O)c1ccc(F)cc1)C1CCCCC1 (configuration not stated)	0%
CCOC(=O)c1ccc2c(c1)N(CC(=O)N(C)c1ccccc1)C(=O)c1ccccc1S2	0%
Cc1ccccc1NC(=S)N(CCN1CCCCC1)Cc1ccco1	21%
C=CCNC(=O)COC(=O)COc1ccc(Cl)cc1	13%
CC1CCCC(C)N1C(=O)COC(=O)c1cc([N+](=O)[O-])ccc1N1CCOCC1 (configuration not stated)	-4%
COc1ccc(C(=O)NC(=S)Nc2cccc(Cl)c2N2CCOCC2)cc1[N+](=O)[O-]	4%
O=c1c2c(-c3cccc([N+](=O)[O-])c3)ccnc2[nH]n1-c1ccccc1	6%
CCCC(=O)Nc1ccccc1C(=O)OCc1cc(=O)n2nc(C(C)C)sc2n1	18%
COc1ccc(CCC(=O)Nc2cc3c4c(c2)CC(=O)N4CCC3)cc1	-10%
CC(C)C[C@@H](CO)N1CCNCCC1=O	-1%
COc1ccc(NC(=O)C2CCN(c3cc(C)nc4c(-c5ccc(Cl)cc5)c(C)nn34)CC2)cc1	-13%
CCOC(=O)CNC(=O)Nc1cccc(Cl)c1C	-1%
COc1ccccc1NC(=O)c1c(NCc2ccc(OC)c(OC)c2OC)sc2c1CCC2	-2%
Cc1ccc(NNC(=O)Nc2ccc(Cl)cc2)nn1	18µM*
CC(C)CN(C(=O)CN1CCN(c2ccccc2O)CC1)c1c(N)n(CC(C)C)c(=O)[nH]c1=O	9%
CC(=O)c1cc2c(cc1NS(=O)(=O)c1ccc(C)cc1)OCO2	3%
COc1ccc(/C=N\NC(=O)c2ccccc2OC)cc1COc1c(F)c(F)c(F)c(F)c1F	-12%
O=C(CN1C2CCC1CC(NC(=O)Nc1ccccc1)C2)NCc1ccco1 (configuration not stated)	-15%
CC(C)c1ccc(Nc2sc(C(=O)c3ccccc3)c(N)c2S(=O)(=O)c2ccccc2)cc1	4%
CC(=O)c1cccc(NC(=O)c2ccc3c(c2)CCN3S(=O)(=O)c2ccccc2)c1	-15%&-8%
N#C/C(C(=O)N1CCOCC1)=c1/s/c(=C\c2ccccn2)c(=O)n1-c1ccccc1	1%
O=C(CCc1nnc2ccc(NCc3ccco3)nn12)Nc1ccc(F)cc1F	-13%
O=C(NC1CC2CCCC(C1)N2Cc1cccs1)N1CCOCC1 (configuration not stated)	5%
CC(C)(C)c1ccc(N2C(=O)CC(c3ccccc3)C2=O)cc1 (configuration not stated)	10%
O=C(Nc1cccc2cccnc12)c1cccc(N2C(=O)CCC2=O)c1	5%
CCOc1cccc(C2c3c(oc4ccc(F)cc4c3=O)C(=O)N2CCc2ccc(OC)cc2)c1 (configuration not stated)	-8%
CN1CCc2nc(SCc3ccc(Cl)cc3)c(C#N)c(-c3cccs3)c2C1	?
Cc1ccc(OCCCC(=O)NC(C)c2ccccc2)c(C)c1 (configuration not stated)	-2%
COc1ccc2c(c1)C(=O)[C@H](OC(=O)Nc1ccc(C)c(Br)c1)[C@@H](c1ccc(OC)c(Br)c1)O2	-3%
C/C(=N\NC(=O)c1ccccn1)C12CC3CC(CC(C3)C1)C2	-9%
CCc1sc(Nc2ccc(Cl)cc2)nc1-c1cc2cccc(OC)c2oc1=O	14%
CCCOc1ccc(NC(=O)CCC(=O)NC(C)c2ccccc2)cc1 (configuration not stated)	-15%
CC(=O)C1=C(O)CC(C)(C)CC1=NCCc1nc2ccccc2[nH]1	-5%
COC(=O)c1ccc([C@H]2Nc3ccc(S(=O)(=O)Nc4ccc(C)cc4)cc3[C@H]3C=CC[C@H]32)cc1	-17%

Given as labelled records: two of the compounds above
> CC(=O)c1cc2c(cc1NS(=O)(=O)c1ccc(C)cc1)OCO2
  VDR inh = 3%
> CCc1sc(Nc2ccc(Cl)cc2)nc1-c1cc2cccc(OC)c2oc1=O
  VDR inh = 14%

Continuation:
SMILES | VDR inh
c1nc(COc2nsnc2N2CCOCC2)cs1 | 13%
CC(C)c1ccc(NC(=O)CCN2C(=O)c3ccc([N+](=O)[O-])cc3C2=O)cc1 | -6%
O=C(O)CSc1ccc(NC(=O)Nc2ccccc2F)cc1 | 3%
CCOC(=O)/C(C#N)=C1/SC(C)C(=O)N1c1ccc(Br)cc1 (configuration not stated) | -14%
COc1ccc(-c2nn(Cc3ccccc3)cc2C(=O)N2CCN(c3ccccn3)CC2)cc1OC | 0%
O=C(COc1ccc(Cl)cc1)Nc1ncccn1 | 10%
O=C(NOCc1ccccc1)c1coc(-c2ccccc2)n1 | 0%
Cc1nc2ccccc2c(=O)n1NS(C)(=O)=O | -2%
CC(=O)Nc1ccc(OCC(=O)c2ccc(C)cc2C)cc1 | 9%
CCCCc1c(C(=O)O)cc(OC)cc1C(=O)O | 10%
COc1ccnc2c1c(=O)n(Cc1ccccc1Cl)c(=O)n2C | -4%
Cc1ccc(S(=O)(=O)N(Cc2ccc([N+](=O)[O-])cc2)C(=O)N2CCN(C)CC2)cc1 | -3%
O=C(C[n+]1cccc(NC(=O)c2ccccc2)c1)c1cccc([N+](=O)[O-])c1 | -11%
CCOc1cccc(CN2CCCC(C(=O)c3cc(Cl)ccc3OC)C2)c1O (configuration not stated) | -3%
Cc1cc(C(F)(F)F)nn1CCCNC(=O)c1cnccn1 | -14%
CCOC(=O)Cc1c(C)nc(-c2ccccc2)[nH]c1=O | 5%
C#Cc1ccc([C@@H]2C=C(C(=O)O)O[C@H](OCc3ccc(CO)cc3)C2)cc1 | 15%
CCOc1ccc(C(C)=O)cc1COC(=O)CCc1cc(OC)c(OC)c(OC)c1 | 2%
COc1ccc(C(=O)c2ncc(C(F)(F)F)cc2Cl)cc1 | ?
Cc1nnc(NC(=O)NC(C)N2C(=O)C3C4C=CC(C4)C3C2=O)s1 (configuration not stated) | 13%&5%
CCCCn1c(N)c(NCc2ccccc2OC)c(=O)[nH]c1=O | 8%
COc1ccc(C)cc1NC(=O)CNc1ccc(C(C)=O)cc1 | 4%
CC(C)c1ccc(Oc2cccc(C(=O)/C(C#N)=C/N(C)C)c2)cc1 | -13%
CC1CN(C(=O)/C=C/c2ccccc2Cl)CC(C)O1 (configuration not stated) | 9%
CC(C)C(NS(=O)(=O)c1cccc2nsnc12)C(=O)N1CCCCC1 (configuration not stated) | 1%
CCN(CC)c1ccc(S(=O)(=O)N2CCOCC2)cc1NC(=O)CNCc1ccccc1 | -5%
N#CCCn1nc(-c2ccccc2)cc1Nc1ccccc1NC(=O)C(F)(F)F | -12%
O=C(Cn1c2ccccc2c2nc3n(c(=O)c21)CCS3)Nc1ccccc1C(F)(F)F | 22%
CCOC(=O)C1CCN(C(=O)Nc2ccccc2Cl)CC1 | 0%
CC(=O)CCc1ccc(OCC(=O)Nc2cccc(S(=O)(=O)N(C)c3ccccc3)c2)cc1 | 13%
CCOC(=O)C1=C(C)NC(=O)NC1/C=C\c1ccccc1 (configuration not stated) | -13%
CS(=O)(=O)N1CCC(C(=O)Nc2ccc3c(c2)OCO3)CC1 | 5%
CCC1Nc2ncnc(N3CCN(c4ccccn4)CC3)c2N(Cc2ccc(Cl)cc2)C1=O (configuration not stated) | ?
CCOc1ccccc1NC(=O)CSc1nnc(-c2ccco2)n1Cc1ccco1 | 1%
Cc1cccc(NC(=S)NNC(=O)CCn2nc(C)c([N+](=O)[O-])c2C)c1 | 6%
CCn1cc([N+](=O)[O-])c(C(=O)N2N=C(c3ccc(O)c(OC)c3)CC2c2ccccc2O)n1 (configuration not stated) | -15%
Cc1cccc(NC(=O)CN(CC2CCCO2)C(=O)c2ccc(S(C)(=O)=O)cc2)c1C (configuration not stated) | -6%
Cc1cnc(C(=O)OC(C)C(=O)Nc2ccc(Cl)cn2)cn1 (configuration not stated) | 2%
Cc1cc(NC(=O)CSc2nnc(-c3ccccc3)n2C)no1 | -7%
COc1ccc(OC)c(S(=O)(=O)N(C)CC(=O)N2CCN(c3ccccc3)CC2)c1 | 1%
CC/C(=N\N=C1\SC(C)C(=O)N1Cc1ccco1)c1ccccc1 (configuration not stated) | -10%
CCOc1cc(/C=N/Nc2nn3cnnc3c3ccccc23)ccc1O | 18%
CCOC(=O)c1c(C)oc2c(F)c(F)c(F)c(F)c2c1=O | -2%
COc1cc(NC(=O)c2ccccc2)c(OC)cc1NC(=O)CN1C(=O)N(C)C2(CCCCC2)C1=O | -3%
COc1ccc(C2(c3ccc(OC)cc3)NC(=O)N(CC(=O)Nc3ccccc3C)C2=O)cc1 | 8%
NC1=NC(=Nc2ccc(S(=O)(=O)N3CCOCC3)cc2)c2ccccc21 | ?
Cc1cc([N+](=O)[O-])nn1Cc1noc(C(=O)NCCc2ccccn2)n1 | 3%
Cc1ccc(C(=O)Nc2c(C)n(C)n(-c3ccccc3)c2=O)cc1S(=O)(=O)N1CCOCC1 | -11%
O=C(CCN1C(=O)c2ccccc2C1=O)NCc1ccncc1 | -5%
CNC(=S)NCCCCc1cnc[nH]1 | 6%
CN(C)S(=O)(=O)c1ccc2c(c1)nnn2CCNC(=O)Nc1ccc(Br)cc1 | 10%
Cc1ccc(N(CC(=O)NCc2ccccn2)S(=O)(=O)c2ccccc2)cc1Cl | -14%
COc1cc2c(cc1OC)C(c1ccccc1)CC2=O (configuration not stated) | -14%
O=C(Cn1cc(SCc2ccccc2F)c2ccccc21)N1CCCCCC1 | 11%
CN1CCN(CCC(=O)Nc2ccc3c(c2)OCO3)CC1 | 5%
O=C(Nc1ccc2nc[nH]c2c1)c1ccco1 | -11%
NNC(=O)CSCc1nc(-c2ccccc2)cs1 | -2%
Cc1ccc(NCc2ccccc2-c2nnc(-c3ccccc3Cl)o2)c(C)c1 | -10%
COCCn1nnnc1CN1CCC(O)(c2cccc(C(F)(F)F)c2)CC1 | 15%
COCCN(C(=O)CSc1nnc(-c2cccs2)n1N)c1c(N)n(Cc2ccccc2)c(=O)[nH]c1=O | -14%

Structures listed above that bear a hit mark in VDR inh.
SMILES | VDR inh
Cc1ccc(NNC(=O)Nc2ccc(Cl)cc2)nn1 | 18µM*

Following part.
SMILES | VDR inh
Cc1cc(Br)ccc1NC(=O)CN1CCN(c2ccccn2)CC1 | -24%
c1ccc(Sc2cnc3ccccc3n2)cc1 | 11%
CCOc1ccc(NC(=O)CCN2CCN(S(=O)(=O)c3ccc(F)cc3)CC2)cc1 | -4%
C/C(=N/NC(=O)CNC(=O)/C=C/c1ccco1)c1ccc(Cl)cc1 | 4%
Cc1cc(NS(=O)(=O)c2ccc(NC(=O)COc3ccccc3[N+](=O)[O-])cc2)no1 | 5%
CCn1c(NCCCO)nc2c(c1=O)C(C)(CC)Cc1ccccc1-2 (configuration not stated) | -15%

Screens as filed in PubChem BioAssay.
